From PubChem BioAssay
RN4220 kill: kills Staphylococcus aureus RN4220 | S. aureus RN4220 growth, OD600, 16 h | inhibition, % (test concentration not listed) | actives 0.33% (n = 330,000) | AID 1259311;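 active = z-score of -3 or lower and OD600 up to 0.18 on both plates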;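 also: plate controls were untreated cells for no effect and reference antibiotic for full effect; stock transfer was 100 nL into about 80 µL; one replicate is shown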
ugtP null kill: compounds lethal to S. aureus RN4220 ugtP deletion mutant; OD600 growth, 16 h; some inactives read as strong as hits; growth inhibition, % (concentration not given with the values); actives 0.54% (n = 330,000); AID 1259309;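 active = z-score under -3 and OD600 up to 0.15 on both plates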;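 also: plate controls were untreated wells for no effect and antibiotic for full effect; wells of about 80 µL received 100 nL stock; the first replicate is given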
Autofluor counter: counter-screen for toxin protease inhibitors: compound fluorescence; compound autofluorescence counterscreen, microsphere flow cytometry; hits give high values; fluorescence intensity (concentration not given with the values); actives 3.1% (n = 360,000);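 active = at least 3 SD above the mean of all compounds, about 16000 in these data; inconclusive = too few beads counted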;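 also: 100 nL of 1 mM stock went into each well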
BJeLR viability: kills HRASV12-expressing BJeLR cells; BJeLR (HRASV12) viability, CellTiter-Glo ATP luminescence, 48 h; reference of the scale not given here; inhibition, % (test concentration not listed); actives 0.17% (n = 300,000); AID 1554;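 active = replicate mean above 50%; inconclusive = above 50% but judged a plate artefact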;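 also: 50 nL library stock added to about 25 µL; numbers are from one replicate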
Mtb hypoxia inh: Mtb hypoxia fluorescent reporter inhibition; M. tuberculosis hypoxia-regulated fluorescent reporter, fluorescence; fluorescence inhibition, % (no concentration beside the values); actives 0.1% (n = 300,000); AID 1159583;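 active = 35 to 45% if threefold the growth effect, above 45% if 1.5-fold the growth effect; inactive = the rest, general growth blockers included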;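 also: wells of about 50 µL received 100 nL stock; 0% = vehicle wells and 100% = reference inhibitor wells; whole bacteria with a GFP reporter of the hypoxia response; strong numbers were not always called active; many hits fall short of the cut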
PrP UTR inh: inhibition of PrP 5' UTR reporter expression. actives 0.35% (n = 340,000). inhibition, % (no concentration beside the values). AID 488862. cell-based PrP 5' UTR mRNA reporter, plate reader;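 active = every replicate at 50% or more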;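 also: 0 = median of the neutral control wells; tested in H4 reporter cells; numbers are from one replicate; inactives centre near -14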
Mtb hypoxia inh growth: second read-out of Mtb hypoxia inh, no call of its own (marks repeat the call); growth inhibition, %; measured here: M. tuberculosis growth (absorbance);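 0% = vehicle and 100% = reference antibiotic; read after six days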
Active calls of the source: *; ? = inconclusive; · = no result given.

(1) CC(C)OC(=O)CSc1nnc(-c2ccco2)n1N
(2) Cc1ccc(C(=O)NCCN2CCNC2=O)cc1
(3) CN(C)c1ccnc(N(Cc2ccccc2)Cc2ccccc2)c1C#N
(4) CC(=O)NCCc1c[nH]c2ccccc12
(5) COc1ccc(CCNC(=O)Nc2ccc([N+](=O)[O-])cc2)cc1OC
(6) Nc1nc(SCC(=O)N2N=C3/C(=C\c4ccco4)CCCC3C2c2ccco2)n[nH]1 (stereo not drawn)
(7) Cc1cccc(-n2nc(C)cc2N)c1
(8) Cc1cc(C)nc(Nc2n[nH]c(-c3cccc4ccccc34)n2)n1
entry no.	1	2	3	4	5	6	7	8
PrP UTR inh	-1	-8	-44	4	-4	-7	-20	-24
ugtP null kill	1	10	78	-5	6	-8	8	4
RN4220 kill	4.2	2.4	-0.3	1.5	3.5	4.4	1.5	4.1
Mtb hypoxia inh	9	-4	4	·	0	-1	-3	3
BJeLR viability	8	2	2	-4	5	·	6	-1
Mtb hypoxia inh growth	10	-5	16	·	19	3	-2	5
Autofluor counter	6912	3880	6423	5443	2584	4147	8390	2957

(9) COCCN(C(=O)COC(=O)c1sccc1C)c1c(N)n(Cc2ccccc2)c(=O)[nH]c1=O
(10) Cc1nn(-c2ncc(C(F)(F)F)cc2Cl)c(=O)n1-c1ccccc1
(11) COc1cc(C(=O)NNC(=O)c2cc(S(=O)(=O)N(C)C)ccc2N2CCCC2)cc(OC)c1OC
(12) O=C(NCCCN1CCOCC1)c1ccc2c(c1)N(Cc1ccccc1F)C(=O)c1ccccc1S2=O (stereo not drawn)
(13) O=c1[nH]c2c(c3c1CCCC3)CCCC2
(14) O=S(=O)(c1ccccc1)N1CCN(S(=O)(=O)c2ccccc2)c2ccccc21
(15) CCOC(=O)/C=C/CN(C(=O)OC(C)(C)C)S(=O)(=O)N1CC=CC1
(16) CCCOC(=S)NC(=O)c1sc2ccccc2c1Cl
entry no.	9	10	11	12	13	14	15	16
PrP UTR inh	-13	-3	-3	-6	-7	-13	-12	·
ugtP null kill	14	17	8	-7	-4	-16	·	3
RN4220 kill	1.8	3.6	0.5	-2.3	3.0	7.2	·	34
Mtb hypoxia inh	16	·	5	-1	6	8	·	6
BJeLR viability	8	6	·	1	3	·	-8	2
Mtb hypoxia inh growth	-3	·	4	9	7	8	·	5
Autofluor counter	4856	2336	3019	5570	10342	3772	3871	9611

(17) Cc1cccc(C)c1N1CC(=O)N(c2c(C)cccc2C)CC1=O
(18) CC(C)N1CC(C(=O)Nc2ccc(Cl)c(Cl)c2)CC1=O (stereo not drawn)
(19) CC(C)(C)N(Cc1ccccc1)C(=O)CN1C(=O)c2ccccc2S1(=O)=O
(20) Cc1ccc(S(=O)(=O)Nc2nc(C)cc(N/N=C/c3ccc(O)cc3)n2)cc1
(21) CC(=O)N(Cc1cccs1)Cc1cc2ccc(C)c(C)c2nc1Cl
(22) CC(C)[C@H](NC(=O)C1CCN(S(=O)(=O)c2ccc(F)cc2)CC1)C(=O)N1CCCCCC1
(23) COc1cc(C2C(C(=O)c3ccc(C)o3)=C(O)C(=O)N2Cc2ccccc2)ccc1O (stereo not drawn)
(24) COc1cc(/C=N/NC(=O)c2cccnc2)ccc1OS(=O)(=O)c1cc(C)ccc1C
entry no.	17	18	19	20	21	22	23	24
PrP UTR inh	-14	-26	-26	-10	39	-10	-10	-18
ugtP null kill	2	-8	3	·	6	0	8	·
RN4220 kill	0.9	2.8	3.2	·	13	0.9	4.1	·
Mtb hypoxia inh	·	-8	4	·	12	-6	6	·
BJeLR viability	-1	-7	·	3	9	9	0	-2
Mtb hypoxia inh growth	·	-5	9	·	11	-6	2	·
Autofluor counter	3800	3207	4218	2481	4364	4686	?	2952

(25) CCCNC(=O)CS(=O)(=O)Cc1nc(-c2ccccc2C)oc1C
(26) O=C(CN1C(=O)c2ccccc2S1(=O)=O)NCc1cccs1
(27) CCOc1ccc(OCC)c(S(=O)(=O)NCc2ccccc2)c1
(28) CCCOC(=O)c1ccc(NC(=O)c2c(Cl)ccc(Cl)c2OC)cc1
(29) CC1Cc2cc(S(=O)(=O)NCCC(=O)NCc3ccc(F)cc3)ccc2N1C(=O)C1CC1 (stereo not drawn)
(30) Cc1ccc(C)c(NC(=O)CSc2nnc3n2CCCCC3)c1
(31) COc1cc(NC(=O)COc2cccc3c2OC(C)(C)C3)cc(OC)c1OC
(32) Cn1c(=O)c2[nH]c(CN(Cc3ccccc3)Cc3ccccc3)nc2n(C)c1=O
entry no.	25	26	27	28	29	30	31	32
PrP UTR inh	-27	-2	-13	-15	-17	-22	-13	-16
ugtP null kill	-2	-1	9	-17	3	-5	1	-3
RN4220 kill	-3.4	2.5	5.5	14	2.3	1.4	4.9	1.9
Mtb hypoxia inh	8	13	-4	5	2	8	6	-14
BJeLR viability	6	2	-13	2	2	-2	·	4
Mtb hypoxia inh growth	12	1	6	4	-2	16	0	-5
Autofluor counter	6274	5744	4086	2467	5283	2545	3958	6061

(33) O=c1cc(-c2ccccc2)nc(N2CCN(Cc3ccccc3)CC2)[nH]1
(34) Cc1ccc(NC(=O)Cn2nc(C(=O)O)c3ccccc3c2=O)cc1S(=O)(=O)N1CCCCC1
(35) O=C(NCCCn1ccnc1)C(=O)NCC1OCCCN1S(=O)(=O)c1ccccc1 (stereo not drawn)
(36) CCOC(=O)c1cccc(NC(=O)CSc2nnc(C)n2CC2CCCO2)c1 (stereo not drawn)
(37) CN(C)c1ccc(-n2cccc2/C=N/n2cnnc2)cc1
(38) Cc1c(O)ccc(/C(Cc2ccc3ccccc3n2)=N\N)c1O
(39) C[N+]1(C)C2CCC1CC(OC(=O)c1ccco1)C2 (stereo not drawn)
(40) CCSc1nc2[nH]ncc2c(=O)[nH]1
entry no.	33	34	35	36	37	38	39	40
PrP UTR inh	-17	-8	-5	-17	-24	-64	·	-32
ugtP null kill	13	-1	-7	-1	·	·	-2	4
RN4220 kill	-2.2	4.8	-3.4	2.8	·	·	1.4	2.2
Mtb hypoxia inh	·	1	-7	11	·	·	-5	3
BJeLR viability	-5	·	-12	-1	5	-5	6	3
Mtb hypoxia inh growth	·	1	-2	-2	·	·	-3	7
Autofluor counter	4190	3828	1898	2984	8829	3656	4038	2510

(41) COc1ccc([N+](=O)[O-])cc1NC(C)C
(42) CN1CCc2c(sc3c2c(=O)n(-c2ccccc2)c2nnc(SCc4ccc(F)cc4)n32)C1
(43) S=c1nc2c(n[nH]1)c1ccccc1n2CCc1ccccc1
(44) Cc1ccc(C)c(Cn2nnc3c(=O)[nH]c(C4CCCN(C(=O)CC(C)C)C4)nc32)c1 (stereo not drawn)
(45) O=C(OCc1nnc(-c2ccc(Cl)cc2)o1)c1ccc(=O)n(Cc2ccccc2)n1
(46) C=CCn1c(N=Cc2ccc3c(c2)OCO3)nc2ccccc21
(47) C#CCOCCOCCOCCNc1nc(N2CCN(C(=O)C([C@@H](C)CC)n3cc(C(N)CC(C)C)nn3)CC2)nc(N2CCN(C(=O)[C@H](CCC(=O)O)n3cc(C(N)Cc4ccc(O)cc4)nn3)CC2)n1 (stereo partly drawn)
(48) CSCCC(NC(=O)COc1ccccc1)C(=O)N1CCN(c2ccccc2)CC1 (stereo not drawn)
entry no.	41	42	43	44	45	46	47	48
PrP UTR inh	-9	-23	6	-16	-19	·	0	-9
ugtP null kill	7	18	5	-4	-5	-2	·	11
RN4220 kill	2.9	6.8	0.4	4.4	9.9	0.2	·	5.7
Mtb hypoxia inh	16	7	16	-3	10	4	·	12
BJeLR viability	3	·	5	0	-2	·	1	·
Mtb hypoxia inh growth	6	21	10	12	7	-4	·	2
Autofluor counter	2243	3626	·	21556*	2906	·	3876	6266

(49) Clc1ccccc1-c1nc(-c2ccc(Br)o2)no1
(50) C[C@]12CC[C@@H](O)CC1=CCC1C2CC[C@@]2(C)C1C[C@@H](F)[C@@H]2O (stereo partly drawn)
(51) CCN(C(=O)COC(=O)CCc1ccc(OC)cc1)c1c(N)n(Cc2ccccc2)c(=O)[nH]c1=O
(52) CCCc1nc(SCC(=O)Nc2nc3c(s2)CCCC3)c2ccccc2n1
(53) O=C(Cn1c(=O)c2cccn2c2ccccc21)NCc1cccc(F)c1
(54) CCC1CCCCN1c1cc(C)nc2cc(-c3cccc(C)c3)nn12 (stereo not drawn)
(55) Cc1nn2c(nc(N3CCCCC3)c3ccccc32)c1C=O
(56) C=C(C)C(=O)OCCCCCCOc1ccc(C(=O)O)cc1
entry no.	49	50	51	52	53	54	55	56
PrP UTR inh	-73	-9	6	2	2	2	-15	-14
ugtP null kill	7	4	3	-10	-10	-2	-1	4
RN4220 kill	5.7	7.5	4.1	4.0	-3.0	1.4	2.5	4.2
Mtb hypoxia inh	-13	6	4	6	-7	10	11	-5
BJeLR viability	1	·	·	12	-3	-4	-3	5
Mtb hypoxia inh growth	8	2	2	7	-3	3	1	-2
Autofluor counter	3461	2895	5168	10461	5360	3891	8111	5055

Rewritten with two lines to a compound: part of the list above.
Sequence of screens: PrP UTR inh | ugtP null kill | RN4220 kill | Mtb hypoxia inh | BJeLR viability | Mtb hypoxia inh growth | Autofluor counter
47) C#CCOCCOCCOCCNc1nc(N2CCN(C(=O)C([C@@H](C)CC)n3cc(C(N)CC(C)C)nn3)CC2)nc(N2CCN(C(=O)[C@H](CCC(=O)O)n3cc(C(N)Cc4ccc(O)cc4)nn3)CC2)n1 (stereo partly drawn)
 : 0 | · | · | · | 1 | · | 3876
48) CSCCC(NC(=O)COc1ccccc1)C(=O)N1CCN(c2ccccc2)CC1 (stereo not drawn)
 : -9 | 11 | 5.7 | 12 | · | 2 | 6266
49) Clc1ccccc1-c1nc(-c2ccc(Br)o2)no1
 : -73 | 7 | 5.7 | -13 | 1 | 8 | 3461
50) C[C@]12CC[C@@H](O)CC1=CCC1C2CC[C@@]2(C)C1C[C@@H](F)[C@@H]2O (stereo partly drawn)
 : -9 | 4 | 7.5 | 6 | · | 2 | 2895
51) CCN(C(=O)COC(=O)CCc1ccc(OC)cc1)c1c(N)n(Cc2ccccc2)c(=O)[nH]c1=O
 : 6 | 3 | 4.1 | 4 | · | 2 | 5168
52) CCCc1nc(SCC(=O)Nc2nc3c(s2)CCCC3)c2ccccc2n1
 : 2 | -10 | 4.0 | 6 | 12 | 7 | 10461
53) O=C(Cn1c(=O)c2cccn2c2ccccc21)NCc1cccc(F)c1
 : 2 | -10 | -3.0 | -7 | -3 | -3 | 5360
54) CCC1CCCCN1c1cc(C)nc2cc(-c3cccc(C)c3)nn12 (stereo not drawn)
 : 2 | -2 | 1.4 | 10 | -4 | 3 | 3891
55) Cc1nn2c(nc(N3CCCCC3)c3ccccc32)c1C=O
 : -15 | -1 | 2.5 | 11 | -3 | 1 | 8111

Additional structures:
(57) O=C(CCS(=O)(=O)c1ccc(Br)cc1)N1CCN(c2ccccc2Cl)CC1
(58) CCOC(=O)CN1C(=O)S/C(=C/c2ccc3c(c2)n(C)c(=O)n3C)C1=O
(59) C=C(C)CSc1nncn1N=Cc1ccc(OC)cc1
(60) COc1ccc2cc(C(=O)C3CCCN(C(=O)c4snnc4C)C3)ccc2c1 (stereo not drawn)
entry no.	57	58	59	60
PrP UTR inh	·	-27	·	-17
ugtP null kill	17	-3	-7	-2
RN4220 kill	0.9	3.4	-3.8	2.5
Mtb hypoxia inh	13	12	-15	3
BJeLR viability	3	2	·	-2
Mtb hypoxia inh growth	-2	4	0	14
Autofluor counter	11477	2776	·	4468
